High-throughput results from PubChem BioAssay.
Rce1 inhib: inhibitors of yeast Ras-converting enzyme; yeast membranes, quenched prenylated peptide cleavage fluorescence; AID 2563; Q03530; actives 0.27% (n = 290,000); calls only;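 active = fall in fluorescence gain of 50% or more versus controls, with final raw signal at or below 3038400; inconclusive = same 50% fall but final raw signal above 3038400; inactive = fall in fluorescence gain under 50%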;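 note: plate controls were neutral control wells for no effect and wells lacking membranes for full effect; tested at 10 µM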
eIF4H inh: inhibitors of RNA binding by human eIF4H. Q15056. eIF4H fluorescence polarization binding assay. inhibition, % at 35 µM. actives 0.94% (n = 290,000);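 active = 50% or more with normal probe brightness, or confirmed in later tests; inconclusive = above 50% with abnormal brightness, or retests that disagree; inactive = below 50% or failed in later tests; about a fifth of its hits are not listed in these tables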;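 note: calls also rest on retests at 20 µM and on dose response follow-up; 0% = protein and probe with vehicle and 100% = probe without protein; strong numbers were not always called active; many hits fall short of the cut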
PABP FP inh: PABP-poly(A) binding inhibition; P11940; PABP-poly(A) RNA binding, fluorescence polarization; inhibition, % at 35 µM; actives 1% (n = 290,000); AID 2014;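 active = 50% or more with normal probe brightness, or confirmed in later tests; inconclusive = above 50% with abnormal brightness, or retests that disagree; inactive = below 50% or failed in later tests; about a fifth of its hits are not listed in these tables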;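 note: calls also rest on retests at 20 µM and on dose response follow-up; controls were probe without protein and protein plus probe with vehicle; some compounds called inactive have numbers as strong as hits; many hits fall short of the cut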
Target sequence (P11940 whole entry, looked up): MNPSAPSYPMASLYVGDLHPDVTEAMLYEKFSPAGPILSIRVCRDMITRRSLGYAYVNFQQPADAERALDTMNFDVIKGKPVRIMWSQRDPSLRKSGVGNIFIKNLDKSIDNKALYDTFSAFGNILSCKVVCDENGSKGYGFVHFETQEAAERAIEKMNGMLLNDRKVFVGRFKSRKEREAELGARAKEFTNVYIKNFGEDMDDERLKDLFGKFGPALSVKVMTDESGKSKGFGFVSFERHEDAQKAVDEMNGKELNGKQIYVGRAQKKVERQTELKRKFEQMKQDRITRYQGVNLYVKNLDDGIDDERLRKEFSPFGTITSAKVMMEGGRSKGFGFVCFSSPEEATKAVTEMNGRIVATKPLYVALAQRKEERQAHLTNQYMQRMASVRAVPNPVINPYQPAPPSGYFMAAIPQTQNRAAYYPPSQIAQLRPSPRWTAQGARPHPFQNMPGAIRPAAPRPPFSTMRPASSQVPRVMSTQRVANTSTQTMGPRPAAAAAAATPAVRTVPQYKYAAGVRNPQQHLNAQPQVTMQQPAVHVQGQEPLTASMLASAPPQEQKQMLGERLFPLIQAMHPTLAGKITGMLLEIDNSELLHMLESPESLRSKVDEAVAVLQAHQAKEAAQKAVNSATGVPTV
MT1-MMP act inh: blocks activation of human MT1-MMP | HT1080 RFP-PRO-GFP cells, GFP/RFP ratio fluorescence, overnight; percent of plate control window, DMSO zero | GFP/RFP ratio change, % at 20 µM | actives 0.061% (n = 360,000) | AID 651647;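 active = GFP/RFP ratio change of at least 30% with cell ATP level not reduced by more than half and red fluorescence within 50% of control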; note: strong numbers were not always called active
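Assay system – RFP-PRO-GFP reporter HT1080 cells · Compound dosing – single dose of 20 µM compound, 1% DMSO final · Incubation – overnight compound exposure at 37 °C · Measure – GFP/RFP fluorescence ratio · Benchmarks – DMSO wells and RFP-L50D-GFP cells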
Yeast UUG start: alters start codon recognition fidelity in yeast | activity score, % at 18.7 µM | AID 602363 | S. cerevisiae UUG-firefly luciferase reporter, luminescence/redox ratio | actives 0.13% (n = 350,000);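 active = replicate mean at a twofold rise or more, about +100% in these data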;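 note: firefly luciferase made from a UUG start codon reports start codon fidelity; reporter light over untreated wells divided by growth signal over untreated wells; some hits fall short of that in this replicate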
Env fusion inh: inhibitors of HIV Env-mediated cell fusion. HeLa-JRFL Env/CEM21 cell fusion, luciferase. inhibition, % at 12.3 µM. actives 1.1% (n = 360,000);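 active = mean replicate inhibition score of at least 50 and every replicate individually at or above 50; inconclusive = only one of the two criteria met; inactive = mean below 50 and not all replicates reaching 50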;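 note: 0% = plate neutral controls and 100% = maraviroc near 300 nM; one replicate is shown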
CSC inhib: cancer stem cell inhibition; cancer stem cell-like cells viability, luminescence; inhibition, % at 7.5 µM; actives 1.1% (n = 300,000); AID 2717;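 active = mean at 75% or more and at least half the replicates too; inconclusive = mean and replicates disagree; tested in HMLE shEcad cells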;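 note: 0% = median of negative and 100% = median of positive control wells; the first replicate is given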
eIF4H inh retest: second read-out of eIF4H inh, no call of its own (marks repeat the call); inhibition, %; compound at 20 µM; confirmation average;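 mean of two retest wells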
PABP FP inh retest: also measured in PABP FP inh; calls as there; inhibition, %; compound at 20 µM; confirmation repeats;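 mean of two retest wells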
MT1-MMP act inh RFP: also measured in MT1-MMP act inh; calls as there; RFP signal change, %; measured here: RFP expression control read;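 0 = vehicle wells; hits needed this value within 50% of zero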
* = called active by the depositor; i = inactive; ? = inconclusive; . = no result given; + = active, no number. Compounds were not picked by outcome; 2.9% or so of the library scored in one or more.

A first look (two entries):
SMILES | Rce1 inhib | eIF4H inh | PABP FP inh | MT1-MMP act inh | MT1-MMP act inh RFP | Yeast UUG start | Env fusion inh | CSC inhib | others
O=C(Cn1cc([N+](=O)[O-])cn1)N1CCCc2ccccc21 | i | 0 | 27 | -2 | 3 | . | -9 | -13
CC1=CS/C(=C(/C#N)C(=O)NCc2ccco2)N1c1ccccc1 | i | -7 | -6 | 2 | 5 | -21 | 9 | 0

The listing, repeating the preview:
SMILES | Rce1 inhib | eIF4H inh | PABP FP inh | MT1-MMP act inh | MT1-MMP act inh RFP | Yeast UUG start | Env fusion inh | CSC inhib | others
O=C(Cn1cc([N+](=O)[O-])cn1)N1CCCc2ccccc21 | i | 0 | 27 | -2 | 3 | . | -9 | -13
CC1=CS/C(=C(/C#N)C(=O)NCc2ccco2)N1c1ccccc1 | i | -7 | -6 | 2 | 5 | -21 | 9 | 0
COc1cc(-c2nc(-c3ccc(NC(=O)c4ccc5c(c4)OCO5)cc3)no2)cc(OC)c1OC | i | 7 | -2 | 0 | -3 | -13 | i | 30
Cc1cccc(N2CCN(C(=O)c3cn4ccccc4n3)CC2C)c1 (stereo unspecified) | i | 0 | 5 | 1 | -5 | -13 | 1 | .
CCNC(=O)C1(C)CCCN1C(=O)c1cc(C)on1 (stereo unspecified) | . | . | . | -2 | -1 | -2 | -25 | .
CCOC(=O)C(C(=O)OCC)C(C)(C)/C(C)=N\Nc1ccc([N+](=O)[O-])cc1[N+](=O)[O-] | i | -3 | -6 | 9 | -12 | -7 | ? | 1
COc1ccccc1CNc1nc(C)c(C(C)=O)s1 | . | -16 | 16 | 3 | -8 | -7 | -5 | -9
CC(C)(C)OC(=O)C[C@H]1C/C=C\C[C@@H](CC(=O)NCCO)C(=O)N[C@H](Cc2ccccc2)COC1=O | . | . | . | 4 | 14 | 4 | -62 | .
O=C(NCCCNC(=O)NC1CCCCC1)NC1CCCCC1 | i | . | . | . | . | . | -43 | 0
CCOc1ccc(S(=O)(=O)N(CC(=O)O)c2ccccc2)cc1 | i | -8 | 4 | -1 | 2 | -15 | . | -2
Cc1cc(N2CCN(c3ccc(F)cc3)CC2)nc2cc(O)ccc12 | i | -13 | 3 | 3 | -4 | 2 | 11 | 41
CCCC(=O)c1cc(F)c(N2CCN(C(=O)OCC)CC2)cc1C | i | -8 | -14 | -1 | 1 | -2 | -36 | 9
N#Cc1ccc(N2CCCC2C(=O)O)c([N+](=O)[O-])c1 (stereo unspecified) | i | -6 | 3 | -5 | 0 | -20 | -4 | -13
CC(=O)NC1CC2CCCC(C1)N2CC(=O)Nc1ccccc1 (stereo unspecified) | i | -2 | -2 | -5 | -3 | -19 | -33 | -15
CCCn1c(C2CCCN2c2nc(-c3ccc(C)cc3)cs2)nc2ccccc21 (stereo unspecified) | i | 2 | 2 | -6 | -4 | -14 | . | 44
O=C(NC1CCCCC1)C1CCCN(S(=O)(=O)c2cccc3cccnc23)C1 (stereo unspecified) | i | -3 | 3 | 0 | -4 | -7 | 0 | .
CN1OC[C@@H]2CN(C(=O)CCc3ccccc3)[C@H](c3cccc(N4CCOCC4)c3)C[C@@H]21 | . | . | . | 2 | 5 | -6 | -39 | .
O=C(NCc1cccnc1)c1cn(-c2ccccc2)nc1-c1cccs1 | i | 3 | 4 | 7 | -2 | -19 | . | -7
COc1ccc(CCNC(=O)COc2cc(C)cc3oc(=O)cc(C)c23)cc1OC | i | -6 | -16 | 1 | 4 | -15 | -14 | -6
O=C(NCCN1CCN(Cc2ccccc2)CC1)C1CC(=O)N(C2CCCC2)C1 (stereo unspecified) | i | -9 | -5 | 2 | 6 | 6 | . | -3
CCn1c(SCC(N)=O)nc2sc3c(c2c1=O)CCN(C)C3 | i | 47 | 24 | -1 | -8 | -6 | 10 | -10
COc1ccc(C(=O)Nc2ccc(N3CCN(Cc4ccccc4)CC3)cc2)cc1 | i | -10 | -4 | 2 | 3 | . | 9 | -5
O=C(/C=C/c1cccc(Cl)c1)Nc1ccncc1 | i | -7 | 5 | -4 | -6 | -9 | -30 | -15
O=C(O)c1cccc(N2C(=O)c3cc([N+](=O)[O-])cc4cc([N+](=O)[O-])cc(c34)C2=O)c1 | i | 68* | 57* | 42* | 31* | -11 | 22 | 4
COc1ccc(NC(=O)c2c(F)c(F)c(F)c(F)c2F)cc1Cl | i | 8 | -7 | -4 | -7 | -18 | . | -3
COc1cccc(OCC(=O)Nc2ccccc2C(N)=O)c1 | i | 4 | -3 | 2 | 3 | -18 | -85 | -7
CCc1ccc(NC(=O)C2CCN(S(=O)(=O)c3ccc4c(c3)CC(C)N4C(C)=O)CC2)cc1 (stereo unspecified) | i | 5 | -7 | 2 | -31 | -9 | 22 | -1
COc1ccc(C)cc1NS(=O)(=O)c1ccc2c(c1)N(C(C)=O)CCO2 | i | -12 | -6 | 1 | 0 | 7 | 0 | -5
O=C(/C=C/c1ccc2c(c1)OCO2)NCCSCc1ccc(Cl)cc1Cl | i | -2 | -5 | 1 | 1 | 0 | . | .
CCN(CC)C(=O)C1=C(C)N(Cc2ccccc2)C(=O)C(CC(=O)NC2CC2)C1 (stereo unspecified) | . | . | . | 5 | 4 | -9 | -32 | .
Cn1cccc1C(=O)OCC(=O)NCc1ccc2c(c1)OCO2 | . | . | . | -3 | -1 | -1 | -6 | .
O=C(Cc1cccs1)Nc1ccc(-c2nnc(-c3ccco3)o2)cc1 | i | 4 | 8 | 6 | 8 | . | -3 | -12
Cc1ccc(NCCNc2ccc(C)cc2)cc1 | i | 3 | -3 | 3 | 3 | -17 | -79 | 1
COc1ccc(CCNC(=O)C(=O)NCc2ccccc2)cc1OC | i | 10 | -14 | -2 | -19 | -9 | . | 50
CC1(C)Cc2c(cnn2-c2ccccc2)C(NC(=O)CCCN2CCCC2=O)C1 (stereo unspecified) | i | -12 | 1 | -1 | 4 | -6 | 9 | -5
N#Cc1ccccc1OCC(=O)NC1CCCCCC1 | . | . | . | 2 | -3 | -16 | -35 | .
CCOC(=O)c1ccc(S(=O)(=O)N2CCN(CC(O)COc3ccc(C#N)cc3)CC2)cc1 (stereo unspecified) | i | 14 | 12 | 1 | 3 | -1 | 7 | -9
CCN(CC(=O)Nc1ccc(OC)cc1)C(=O)c1ccc(NS(=O)(=O)c2ccc(C(C)=O)cc2)cc1 | i | . | . | 0 | 1 | . | -156 | -6
Cc1nn(Cc2c(F)c(F)c(F)c(F)c2F)c(C)c1NC(=O)c1nn(C)cc1[N+](=O)[O-] | i | -7 | -14 | -4 | 4 | 8 | -18 | 19
Cc1ccc(NC(=O)COC(=O)c2ccc(-n3cnnn3)cc2)c(Br)c1 | . | . | . | 3 | 3 | -8 | 8 | .
COc1ccccc1NC(=O)CCSc1nnnn1C | i | 5 | 5 | 1 | 6 | -17 | -66 | -12
O=C(CCn1c(=O)oc2ccccc21)N1CCN(c2ccccc2Cl)CC1 | i | 5 | -11 | -1 | -16 | 15 | 45 | 53
Cc1cc(NC(=O)CC23CC4CC(C2)CC(CC(=O)Nc2cc(C)on2)(C4)C3)no1 | i | -1 | -2 | -3 | 3 | -9 | -81 | -20
O=C(Nc1ccc(C(=O)N2CCCC2)cc1)c1cc(F)c(F)cc1Cl | . | . | . | 3 | 3 | -11 | -1 | .
COc1cccc(NC(=O)CN(C)CC(=O)Nc2ccc(C)cc2Cl)c1 | i | -2 | -3 | -3 | -4 | 9 | 16 | -3
CCN(CCO)Cc1csc2ccc(Br)cc12 | i | 0 | 20 | 2 | 2 | -12 | . | -1
O=C(NNC(=O)C1CCCO1)c1ccc([N+](=O)[O-])cc1 (stereo unspecified) | i | -6 | -6 | 4 | 8 | -6 | 9 | .
CCN1CCCC1CNCC(O)COc1ccc(C(C)(C)C)cc1C (stereo unspecified) | i | 21 | 5 | 8 | 4 | . | 9 | 55
O=Cc1ccc(-c2cccc([N+](=O)[O-])c2)o1 | i | -4 | 1 | 2 | 1 | . | 3 | -16
COc1ccc(S(=O)(=O)N2CCC(C(=O)Nc3nnc(CCN4CCCCC4)s3)CC2)cc1 | i | -1 | 2 | 1 | 3 | -29 | -11 | 0
COCCCn1c(SCC(=O)NC2CCCC2)nnc1-c1ccccc1 | i | -7 | -7 | 3 | 1 | 4 | 7 | -13
Cc1c(C(=O)N/N=C/C(C)C)[nH]c2ccc([N+](=O)[O-])cc12 | i | -1 | 4 | -6 | -8 | . | 13 | -8
COCCNS(=O)(=O)c1cccc2cccnc12 | i | -4 | 8 | -1 | 4 | -4 | -12 | 0
Cc1ccccc1-c1nc2c(s1)CCc1onc(-c3ccc(Cl)cc3)c1-2 | i | . | . | 1 | -1 | -22 | -32 | 28
NS(=O)(=O)c1ccc(CCNC(=O)COC(=O)CCc2c[nH]c3ccccc23)cc1 | . | . | . | -6 | 1 | -12 | -17 | .
CCC(C)(C)NC(=O)C(c1ccccn1)N(C(=O)c1csnn1)c1ccc(C)c(C)c1 (stereo unspecified) | i | -3 | -4 | 2 | 0 | . | 39 | -4
COc1ccc(/C=C/C(=O)c2ccc(C(=O)/C=C/c3ccc(OC)c(OC)c3)cc2)cc1OC | i | 77 | 23 | 6 | -28 | 1 | -19 | . | eIF4H inh retest=-7;PABP FP inh retest=8
CCN(CC)S(=O)(=O)C1CCS(=O)(=O)C1 (stereo unspecified) | i | -11 | 10 | 2 | 0 | -1 | -103 | -4
Cc1c(NC(=O)COC(=O)c2ccc(Cl)nc2)c(=O)n(-c2ccccc2)n1C | . | . | . | 0 | 3 | -19 | ? | .
Cc1cccc(C(=O)N2CCC(c3nc4ccccc4s3)CC2)c1 | i | 16 | 17 | 5 | 4 | . | 17 | -2

Nothing new here: entries from further up.
SMILES | Rce1 inhib | eIF4H inh | PABP FP inh | MT1-MMP act inh | MT1-MMP act inh RFP | Yeast UUG start | Env fusion inh | CSC inhib | others
COCCCn1c(SCC(=O)NC2CCCC2)nnc1-c1ccccc1 | i | -7 | -7 | 3 | 1 | 4 | 7 | -13
Cc1c(C(=O)N/N=C/C(C)C)[nH]c2ccc([N+](=O)[O-])cc12 | i | -1 | 4 | -6 | -8 | . | 13 | -8

New compounds follow.
SMILES | Rce1 inhib | eIF4H inh | PABP FP inh | MT1-MMP act inh | MT1-MMP act inh RFP | Yeast UUG start | Env fusion inh | CSC inhib | others
Cn1c(C(C#N)/C(=N\S(=O)(=O)c2cccs2)c2ccccc2)nc2ccccc21 (stereo unspecified) | i | 4 | 1 | 2 | 4 | -23 | . | -11
O=C(O)C1CCc2nc(NCc3ccccc3)nc(NCc3ccccc3)c2C1 (stereo unspecified) | . | . | . | -2 | 0 | 16 | 0 | .
Clc1ccc(-c2c[n+](Cc3cccc(Cl)c3)c3n2CCC3)cc1 | i | -4 | -5 | -6 | -7 | . | -6 | 17
O=c1c2ccccc2nc(-c2ccc(Cl)cc2)n1C1CCS(=O)(=O)C1 (stereo unspecified) | i | . | . | 7 | 6 | -15 | -66 | 1
CCC(c1nnnn1C1CCCCC1)N1CCN(C2CCCC2)CC1 (stereo unspecified) | i | -2 | 10 | 8 | 4 | -13 | . | .
Cc1cccc(C)c1NC(=O)CNC(=O)Cn1nc(C)c(C)c(C#N)c1=O | i | . | . | -1 | 1 | . | -12 | -8
COc1cc(C(=O)NCCc2nc3ccccc3n2C)cc(OC)c1OC | i | 5 | -3 | 6 | 0 | -16 | . | .
c1ccc(Nc2cccc(Nc3ccccc3)n2)cc1 | + | -1 | -8 | -27 | -4 | -3 | . | 23
